# Calb FLC: C. albicans growth modulation with fluconazole; C. albicans CaCi-2 (fluconazole-resistant clinical isolate) + fluconazole, Alamar Blue growth, 48 h; growth inhibition, % (no concentration beside the values); 300,000 tested, 0.57% active;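 active = most replicates above 75%; inconclusive = exactly half above 75%; inactive = most below 75%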;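 note: all wells also contain fluconazole at 8 µg/ml as a sub-toxic cotreatment; 0% = median of DMSO wells and 100% = median of geldanamycin control wells; wells of about 8 µL received 7.5 nL stock; the first replicate is given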
# LANA-H2B inh: blocks KSHV LANA binding to histone H2A/H2B; inhibition, % (test concentration not listed); 320,000 tested, 0.6% active; AID 2629; cell-free LANA-H2A/H2B peptide, fluorescence polarization; in the data active = inhibition mostly above about 10%, no sharp cut-off; inactive = mostly below about 6.7%;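 note: stock transfer was 7.5 nL into about 10 µL; 0% = median of vehicle wells and 100% = median of positive control wells; one replicate is shown; the record names a cut of 25% in any replicate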
# Beta2AR agonist: agonists of human beta-2 adrenergic receptor inducing internalization; P07550; 340,000 tested, 0.43% active; response, % (concentration not given with the values); Am2.2-beta2AR cells, FAP receptor internalization, flow cytometry; reference of the scale not given here;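 active = response above a set limit, near 3 SD of response in nonfluorescent compounds, cut at about 42% in these data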;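 note: stock transfer was 100 nL into about 11 µL; a reference agonist was the positive control; negative values mostly stem from fluorescent compounds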
# Target sequence (P07550 whole entry, looked up): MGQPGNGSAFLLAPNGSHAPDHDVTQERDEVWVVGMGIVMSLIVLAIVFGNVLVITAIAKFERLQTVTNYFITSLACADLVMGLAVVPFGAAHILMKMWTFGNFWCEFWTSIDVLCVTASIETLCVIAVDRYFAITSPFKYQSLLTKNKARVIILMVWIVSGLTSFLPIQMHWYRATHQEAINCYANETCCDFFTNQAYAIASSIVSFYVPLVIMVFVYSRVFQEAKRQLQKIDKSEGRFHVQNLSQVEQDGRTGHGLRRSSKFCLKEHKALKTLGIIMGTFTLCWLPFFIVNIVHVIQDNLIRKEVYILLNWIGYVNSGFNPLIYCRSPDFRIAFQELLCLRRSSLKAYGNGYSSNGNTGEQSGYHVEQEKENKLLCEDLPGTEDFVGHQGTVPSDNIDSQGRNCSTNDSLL
# T cruzi repl: T. cruzi replication inhibition | T. cruzi beta-gal in NIH3T3, luminescence, 90 h | inhibition, % (no concentration beside the values) | 300,000 tested, 1.4% active;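 active = mean inhibition across valid replicates above about 55%, limit read from the data; inconclusive = mean below that limit but half or more replicates reach it; inactive = mean below it, under half of replicates reach it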;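 note: signal also drops with host cell toxicity which is not excluded here; 0% = plate median of DMSO wells and 100% = zero luminescence signal; higher percent means less beta-gal luminescence so fewer parasites; stock transfer was 50 nL into about 50 µL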
# Beta cell apopt: beta cell apoptosis inhibition. INS-1E cytokine-induced death, ATP luminescence, 48 h; percent of positive-control rescue, neutral wells zero. protection from apoptosis, % (test concentration not listed). 300,000 tested, 0.8% active. AID 435005;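 active = all replicates at 75% or more, or half of them and the mean; inconclusive = half reach 75% but not the mean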;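 note: 0% = cytokine-treated negative control wells and 100% = positive control rescue; higher means more ATP so stronger rescue from cytokine killing; wells of about 40 µL received 100 nL stock; the first replicate is given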
# A1 inh: inhibitors of the anti-apoptotic protein A1, read as caspase activation; MEF A1-2A-BIM cells, Caspase-Glo 3/7 luminescence, 3 h; percent of clofoctol response, vehicle zero; caspase activation, % (concentration not given with the values); 330,000 tested, 0.066% active;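 active = over half of replicate activation scores above 10%, or exactly half above 10 with the replicate mean above 10; inconclusive = replicate mean below 10 yet half the replicates above 10; inactive = over half of replicates below 10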;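 note: wells of about 30 µL received 50 nL stock; many hits fall short of the cut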
# RanGTP-Impb inh: disruptors of Ran-importin-beta complex formation – biochemical, FRET, CFP-Ran, YFP-importin-beta, homogeneous, primary screen. 300,000 tested, 1.1% active. cell-free CFP-Ran/YFP-importin-beta FRET ratio. inhibition, % (test concentration not listed);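 active = most replicates above 15%; inconclusive = exactly half above 15%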;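 note: 0% = DMSO wells and 100% = Ran loaded with GDP instead of GTP; wells of about 40 µL received 100 nL stock; the first replicate is given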
# UCH37 DUB inh: human UCH37 deubiquitinating enzyme inhibition. AID 588478. purified proteasome/UCH37, Ub-AMC cleavage fluorescence. 330,000 tested, 0.33% active. Q9Y5K5. inhibition, % (test concentration not listed);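 active = mean of two replicates above 20%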;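 note: 0% = compound-free wells with enzyme and 100% = wells lacking proteasome; stock transfer was 100 nL into about 20 µL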
# Target sequence (Q9Y5K5 whole entry, looked up): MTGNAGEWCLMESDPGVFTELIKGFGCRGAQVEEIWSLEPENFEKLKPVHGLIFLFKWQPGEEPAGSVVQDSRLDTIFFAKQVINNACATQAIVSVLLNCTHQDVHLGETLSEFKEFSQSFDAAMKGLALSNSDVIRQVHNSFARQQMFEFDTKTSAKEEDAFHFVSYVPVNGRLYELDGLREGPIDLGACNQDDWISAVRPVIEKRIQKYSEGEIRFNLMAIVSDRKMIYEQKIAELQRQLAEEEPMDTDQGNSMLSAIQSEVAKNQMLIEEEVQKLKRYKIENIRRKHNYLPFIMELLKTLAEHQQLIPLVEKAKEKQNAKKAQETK
#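 System: Proteasome-associated human UCH37 deubiquitinase; Input: 0.15 nM proteasome in added enzyme buffer; Also added: Ub-AMC substrate from 1 µM stock; Incubation: 30 min compound-proteasome preincubation then 25 min substrate reaction, room temperature; Detection: fluorescence, ex 355 nm, em 460 nm; Read-out: % inhibition of Ub-AMC cleavage fluorescence; Benchmarks: no-proteasome and no-compound wells.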
# * = called active by the depositor; ? = inconclusive; . = not tested or not shown.
SMILES,Calb FLC,LANA-H2B inh,Beta2AR agonist,T cruzi repl,Beta cell apopt,A1 inh,RanGTP-Impb inh,UCH37 DUB inh
O=c1ccc(-c2nc3ccccc3n2Cc2ccc(Cl)cc2)c[nH]1,-5,1.1,22,4,-7,0.0,2.4,-2.2
COC(=O)C1(CCSC)NC(c2ccc(O)cc2)C2C(=O)N(c3ccc(F)cc3)C(=O)C21 (stereo unspecified),2,3.0,-4,-7,-7,0.8,4.7,5.2
CC(CC(=O)NCc1cccnc1)c1ccccc1 (stereo unspecified),-4,2.3,0,-14,-1,-1.7,8.6,-4.7
CCCCN(C(=O)CSCC(=O)Nc1cccc(C)c1)c1c(N)n(Cc2ccccc2)c(=O)[nH]c1=O,-6,-2.9,-7,-2,1,0.3,4.7,.
CSCC[C@H](NC(=O)Nc1cccc(Br)c1)C(=O)O,-5,-2.1,-185,-2,-2,0.7,0.7,4.8
CCSc1ncnc2sc3c(c12)CCC3,-11,3.1,0,3,-16,0.3,2.1,-2.7
O=[N+]([O-])c1ccc(CN2CCCCCC2)s1,7,5.0,1,3,.,-0.8,-0.3,7.5
COC(=O)c1cccc(C(=O)Nc2ccc(F)cc2)n1,7,2.4,17,8,.,-5.3,-4.3,2.3
COc1cccc(CNC(=O)c2cc3c(cc2Cl)N2CCCCCC2=NS3(=O)=O)c1,2,6.3,2,-1,-4,-0.9,4.9,3.6
COc1ccc(S(=O)(=O)N(CC(=O)Nc2cc(C)on2)Cc2ccccc2)cc1,-3,-0.1,26,-4,8,0.6,-2.3,3.1
CC1CC(C)(C)NC(=S)N1CCC(=O)N1CCc2ccccc2C1 (stereo unspecified),2,-2.7,0,-12,0,0.1,-3.2,1.7
Nc1nc2ccc(S(=O)(=O)c3ccc4nc(N)sc4c3)cc2s1,-2,0.7,1,-14,-1,0.5,-5.4,1.8
CN(Cc1ccccc1)C(=O)CCC(=O)N(C)Cc1ccccc1,-14,-4.7,0,3,-8,-0.7,1.1,-1.4
CCS(=O)(=O)c1nc(S(=O)(=O)c2ccc(C)cc2)c(NCCCn2ccnc2)s1,-6,1.8,-3,-4,2,0.5,-2.2,0.6
COc1ccc(/C=N/NC(=O)CNC(=O)c2ccc3c(c2)OCCO3)cc1OC,-10,1.6,2,-6,49,-0.6,2.7,.
Cc1ccccc1CN1CCNC(=O)C1CC(=O)O (stereo unspecified),1,2.0,11,-9,1,0.6,?,-0.3
CC(C)N(CCC#N)C(=O)Nc1ccc2c(c1)CCO2,-8,5.8,1,.,-3,-0.2,-0.7,-0.2
CC1(C)CC(=O)C2=C(C1)OC1=C(C(=O)CC(C)(C)C1)C2c1ccccc1,9,-1.6,2,27,-4,1.1,-2.5,2.6
COc1ccc(Cl)cc1C(=O)NNC(=S)NC(=O)c1ccc(F)c(F)c1,-22,3.6,-7,8,.,0.8,1.2,2.5
c1ccc(-c2nnc(-c3ccccn3)s2)nc1,19,-1.0,-8,-4,.,-7.8,3.8,1.5
CC(C)CN(C(=O)C(c1ccccc1)c1ccccc1)c1c(N)n(CC(C)C)c(=O)[nH]c1=O,3,2.8,-3,-2,2,0.0,-1.5,2.7
COC(=O)c1ccc2c(CCO)c[nH]c2c1,-11,1.2,5,-32,0,0.3,-2.3,-167
Cc1ccc(S(=O)(=O)N2CCC(C(=O)NCC(C)(C)N3CCOCC3)CC2)c(C)c1,.,-0.2,-5,.,4,0.1,.,1.2
Cc1nc(-c2nnc(-c3ccccc3)o2)c(C(F)(F)F)o1,1,-2.1,1,-23,6,-0.8,?,2.7
O/N=C/c1cc(Br)ccc1OCc1cccc(F)c1,-61,0.5,33,-11,-2,-2.1,2.0,.

# As a short view, twelve of the compounds above.
SMILES,Calb FLC,LANA-H2B inh,Beta2AR agonist,T cruzi repl,Beta cell apopt,A1 inh,RanGTP-Impb inh,UCH37 DUB inh
COc1ccc(S(=O)(=O)N(CC(=O)Nc2cc(C)on2)Cc2ccccc2)cc1,-3,-0.1,26,-4,8,0.6,-2.3,3.1
CC1CC(C)(C)NC(=S)N1CCC(=O)N1CCc2ccccc2C1 (stereo unspecified),2,-2.7,0,-12,0,0.1,-3.2,1.7
Nc1nc2ccc(S(=O)(=O)c3ccc4nc(N)sc4c3)cc2s1,-2,0.7,1,-14,-1,0.5,-5.4,1.8
CN(Cc1ccccc1)C(=O)CCC(=O)N(C)Cc1ccccc1,-14,-4.7,0,3,-8,-0.7,1.1,-1.4
CCS(=O)(=O)c1nc(S(=O)(=O)c2ccc(C)cc2)c(NCCCn2ccnc2)s1,-6,1.8,-3,-4,2,0.5,-2.2,0.6
COc1ccc(/C=N/NC(=O)CNC(=O)c2ccc3c(c2)OCCO3)cc1OC,-10,1.6,2,-6,49,-0.6,2.7,.
Cc1ccccc1CN1CCNC(=O)C1CC(=O)O (stereo unspecified),1,2.0,11,-9,1,0.6,?,-0.3
CC(C)N(CCC#N)C(=O)Nc1ccc2c(c1)CCO2,-8,5.8,1,.,-3,-0.2,-0.7,-0.2
CC1(C)CC(=O)C2=C(C1)OC1=C(C(=O)CC(C)(C)C1)C2c1ccccc1,9,-1.6,2,27,-4,1.1,-2.5,2.6
COc1ccc(Cl)cc1C(=O)NNC(=S)NC(=O)c1ccc(F)c(F)c1,-22,3.6,-7,8,.,0.8,1.2,2.5
c1ccc(-c2nnc(-c3ccccn3)s2)nc1,19,-1.0,-8,-4,.,-7.8,3.8,1.5
CC(C)CN(C(=O)C(c1ccccc1)c1ccccc1)c1c(N)n(CC(C)C)c(=O)[nH]c1=O,3,2.8,-3,-2,2,0.0,-1.5,2.7

# Carrying on:
SMILES,Calb FLC,LANA-H2B inh,Beta2AR agonist,T cruzi repl,Beta cell apopt,A1 inh,RanGTP-Impb inh,UCH37 DUB inh
CCCN(CC(=O)Nc1ccc(C(N)=O)cc1)CC(=O)Nc1ccc(Cl)cc1Cl,7,2.4,6,-5,1,0.1,-4.1,1.0
CCOc1ccc(NC(=S)NCCN2CCN(Cc3ccccc3)CC2)cc1,9,-2.0,7,16,1,0.1,0.0,4.0
Cc1c(CN(C)C(=O)c2sc3cc(Cl)ccc3c2Cl)cnn1C,-3,-2.7,-15,-24,30,0.1,8.7,4.5
O=C(O)C12CC3CC(C1)CC(n1ncc(NCc4ccco4)c(Cl)c1=O)(C3)C2,2,-4.9,5,-3,-22,0.2,2.1,6.0
Cc1ccsc1-c1nc(CN2CCCC2c2ccc(F)cc2)c(C)o1 (stereo unspecified),1,-0.3,-3,-3,1,0.0,5.9,.
C/C(=N\n1c(C)nc2ccccc2c1=O)c1ccc(N)cc1,-11,1.6,-16,-2,-7,0.0,0.7,.
NC(=O)N[C@@H](Cc1c[nH]c2ccccc12)C(=O)OCC(=O)N1CCCCC1,-10,2.4,1,-11,3,-0.4,2.4,4.7
O=C(O)CCn1cc(-c2ccc(F)cc2)nc1-c1ccncc1,.,-3.3,2,.,-3,-0.9,.,-1.4
CCCSc1nc2c(c(=O)[nH]c(=O)n2C)n1Cc1ccccc1,5,-5.7,-3,10,6,0.5,-2.5,0.5
O=C(NCCCO)C(=O)NCc1ccncc1,14,2.5,-3,-20,-2,0.6,-1.2,0.6
CCc1nnc(NC(=O)CSc2nccn2-c2ccccc2)s1,-23,2.2,-9,18,-4,-1.8,-2.6,2.1
COC(=O)c1sc(S(=O)(=O)NCc2cccs2)c(C(=O)OC)c1C,-5,2.5,1,-11,-5,0.4,-3.5,3.7
Cc1sc2ncn(CC(=O)NCCc3ccccc3)c(=O)c2c1C,-1,-5.0,-6,-17,2,0.3,1.3,1.0
Cc1nnsc1S(=O)c1ccc(Br)cc1 (stereo unspecified),10,2.7,-1,48,.,0.6,1.4,4.3
CC(=O)Oc1ccc(/C(C)=N/N2CCN(Cc3ccc(C)cc3)CC2)cc1,0,-7.0,5,3,-4,0.6,1.6,.
Cc1ccc(N2CC(C(=O)NCc3ccc(C)n3C)CC2=O)cc1 (stereo unspecified),10,-1.1,-7,-4,-5,0.6,-0.8,-0.9
Cc1nc2ncnn2c(C)c1Cc1c(Cl)cccc1Cl,-5,-0.6,2,-12,8,1.5,2.5,2.3
CNC(=S)N(CCc1c(C)[nH]c2ccc(C)cc12)Cc1cc(OC)c(OC)c(OC)c1,6,-3.0,6,0,.,1.3,7.7,1.7
Cc1nc2ccc(S(=O)(=O)NCC(=O)Nc3cccc(F)c3)cc2s1,0,-1.0,8,-5,-8,0.4,-1.1,0.3
COC(=O)c1ccc(NC(=O)c2cccc(NC(=O)c3ccccc3)c2)cc1,6,-1.5,1,-6,1,1.1,-0.3,3.9
COc1ccc(N2CCN(CCC3Oc4cc([N+](=O)[O-])ccc4NC3=O)CC2)cc1 (stereo unspecified),-1,3.0,11,-14,3,0.2,?,6.2
O=C(COC(=O)c1ccccc1NS(=O)(=O)c1cccs1)NCC12CC3CC(CC(C3)C1)C2,-20,3.4,-8,6,2,0.2,-0.8,-12
COc1ccc(CN2C(=O)c3ccccc3C2C(=O)NC2CCCCCC2)c(OC)c1 (stereo unspecified),-14,.,-6,-5,.,.,7.2,1.9
Cn1c(SCc2ccc([N+](=O)[O-])cc2)nc2c(c1=O)SCC2,-35,0.9,-10,-7,11,?,-2.3,-1.4
CCOC(=O)c1[nH]c(=O)[nH]c1CSCCO,-4,-0.4,-4,-2,-1,1.4,-0.1,2.7

# Carrying on.
SMILES,Calb FLC,LANA-H2B inh,Beta2AR agonist,T cruzi repl,Beta cell apopt,A1 inh,RanGTP-Impb inh,UCH37 DUB inh
COc1ccc(CNC(=O)CN(C)CC(=O)Nc2ccccc2Br)cc1,.,-1.8,-1,.,-4,-0.6,.,1.2
CN1C(=O)/C(=C2/C=CC=CN2C)OC1=S,31,-0.8,-3,8,-6,0.6,1.5,9.8
CC1(OC(=O)C2CCCC2)C(=O)C=C2C=C(c3ccsc3)N(C3CCCC3)C=C2C1=O (stereo unspecified),26,6.5,2,21,2,-0.7,-4.4,3.0
COCCCNC(=O)c1ccc(CS(=O)(=O)c2ccccc2OC)o1,0,4.4,-2,2,-1,-0.1,-2.9,2.6
C#CCOc1ccc(/C=C2/C(=O)NN(c3ccc(F)cc3)C2=O)cc1OC,-2,0.9,12,12,-4,0.5,0.4,4.1
COc1ccc(S(=O)(=O)N2CCC(C(=O)O)(c3ccccc3)CC2)cc1,-3,12,2,-5,.,-0.9,-5.4,0.9
CCC(C(=O)Nc1nnc(-c2ccco2)s1)c1ccccc1 (stereo unspecified),-3,1.7,-3,.,4,0.0,10,-0.9
COc1ccc(NC(=O)CSc2nnc(CNC(=O)COc3ccc(Cl)cc3)o2)cc1,11,4.9,-2,-11,-2,0.2,?,2.0
